HPGD block: qHTS Assay for Inhibitors of HPGD (15-Hydroxyprostaglandin Dehydrogenase) | purified HPGD, NADH fluorescence kinetic, PGE2 substrate | Potency, µM, inactives show at the highest dose activity change, negative = inhibition, actives largely listed as inhibitors | actives 4.3% (n = 150,000) | AID 894, 2007; active = well fitted inhibition curve with a large enough effect (not every such curve was filed as active); inconclusive = small, poorly fitted or top-dose-only effect, or another doubt; inactive = no such curve, though single readings can be large or run the other way;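 note: top concentration of the series not given in the record; plate controls included wells without enzyme; inactives centre near -10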
Target sequence (P15428 whole entry, looked up): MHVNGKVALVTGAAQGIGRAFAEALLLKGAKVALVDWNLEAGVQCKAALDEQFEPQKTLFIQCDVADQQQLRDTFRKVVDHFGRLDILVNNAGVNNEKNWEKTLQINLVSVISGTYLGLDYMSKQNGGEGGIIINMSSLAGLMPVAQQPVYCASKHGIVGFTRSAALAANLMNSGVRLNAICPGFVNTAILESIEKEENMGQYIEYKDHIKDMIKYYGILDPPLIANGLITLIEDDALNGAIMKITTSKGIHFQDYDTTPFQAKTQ
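20 nM HPGD preincubated 15 min at room temperature with compound in 50 mM Tris-HCl pH 8, 0.01% Tween 20. Started with 1 mM NAD+ and 30 uM prostaglandin E2; NADH fluorescence (360/450 nm) read 5 times over 30-s intervals, last minus first.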
Active calls of the source: *; ? = inconclusive. % is set by controls: 0 for no effect and ±100 for the full control effect; potency is the fitted concentration of half-maximal effect.

HPGD block | Compound
-12% | NCCC[C@@H](CC(=O)N[C@@H]1CCNC[C@H]1C(=O)N[C@H](CC(=O)N[C@@H](CCC(=O)O)CC(=O)O)Cc1c[nH]c2ccccc12)NC(=O)C[C@H](CO)NC(=O)[C@@H]1CCCC[C@H]1N
-4% | CCCCNC(=S)NNC(=O)c1csc(C)c1C
-3% | CCOc1ccccc1N1Cc2cc(C)c(C)cc2C1
-1% | CCOC(=O)C1CCN(C(c2cccc(OC)c2)c2sc3nc(C)nn3c2O)CC1 (configuration not stated)
-10% | Cc1ccc(NC(=O)CN(C)CC(=O)Nc2c(C)cccc2C)c(Br)c1
-8% | CCOC(=O)c1c(C)oc2c1c1c(c3ccccc32)OCN(Cc2ccccn2)C1
-4% | NS(=O)(=O)c1ccc(CCNC(=O)COC(=O)C2CCCN2C(=O)c2cccs2)cc1 (configuration not stated)
-14% | Cc1cc(NC(=O)CSc2c3c(nc4ccccc24)CCC3)no1
-22% | Cc1sc2ncnc(OCC(=O)Nc3ccc4c(c3)OCCO4)c2c1C
-9% | c1ccc(-c2cccc(N3CCC4(CCNCC4)CC3)c2)cc1
? | c1ccc2c(c1)OCC(c1nnc3sc(-c4ccc5c(c4)OCO5)nn13)O2 (configuration not stated)
-10% | CCOc1ccc(NC(=O)c2ccc(Br)o2)c([N+](=O)[O-])c1
-28% | c1ccc(Nc2nnc(SCc3cccc4ccccc34)s2)cc1
? | COc1ccc(-c2cc(C(F)F)n3ncc(C(=O)N4CCN5CCCC5C4)c3n2)cc1 (configuration not stated)
-7% | Cc1ccc(S(=O)(=O)N2CCSC2)cc1C
4.5µM* | CC1CCCN(C(=O)CCc2ccccc2)C1 (configuration not stated)
-5% | O=P(O)(OCc1ccccc1)OCc1ccccc1
? | Cc1cccc(-n2c(C)cc(/C=N\NC(=O)c3cccs3)c2C)c1
-12% | Cc1nc(CNS(=O)(=O)c2ccc3c(c2)OCCO3)cs1
-7% | CCCNC(=O)COC(=O)/C=C/c1ccco1
-14% | CCC(C)n1c(SCC(=O)Nc2ccccc2C(F)(F)F)nc2ccsc2c1=O (configuration not stated)
-18% | Cn1c(=O)oc2cc(S(=O)(=O)NCCN3CCN(c4ccccc4F)CC3)ccc21
-4% | COc1ccc(C(=O)Nc2cc(C)c3c(=O)oc4ccccc4c3n2)cc1
10µM* | COc1cc(C2CC(=O)N3CN(Cc4ccccc4)CSC3=C2C#N)ccc1OCc1ccccc1 (configuration not stated)
-21% | COc1ccc(Cl)cc1NC(=O)Cn1c(=O)n2nc(C)nc2c2ccccc21

The closing 4 records of the part before come first, to join the parts:
HPGD block | Compound
-18% | Cn1c(=O)oc2cc(S(=O)(=O)NCCN3CCN(c4ccccc4F)CC3)ccc21
-4% | COc1ccc(C(=O)Nc2cc(C)c3c(=O)oc4ccccc4c3n2)cc1
10µM* | COc1cc(C2CC(=O)N3CN(Cc4ccccc4)CSC3=C2C#N)ccc1OCc1ccccc1 (configuration not stated)
-21% | COc1ccc(Cl)cc1NC(=O)Cn1c(=O)n2nc(C)nc2c2ccccc21
-5% | COc1ccc(-c2nc(-c3cccc(C)c3)nc(N3CCN(C)CC3)c2C#N)cc1
? | O=C(CCBr)N1CCN(C(=O)CCBr)CC1
-7% | COc1ccccc1OCC(=O)NNC(=O)c1cnccn1
-17% | O=C(COC(=O)CCCN1C(=O)c2ccccc2C1=O)Nc1ncc(Cl)cc1Cl
? | CCOC(=O)C1=C(C)NC2=C(C(=O)C(C(=O)OCC)C(c3ccco3)C2)C1c1ccccn1 (configuration not stated)
-5% | COC(=O)C(NNc1ccccc1C)(NC(=O)c1ccc(F)cc1)C(F)(F)F (configuration not stated)
-2% | CC(=O)Nc1cccc(Oc2cnc3ccccc3n2)c1
-23% | Cc1cccc(C(=O)NNC(=O)c2cc3cc4ccccc4nc3s2)c1
? | Cn1ccnc1SCC(=O)c1ccc(Br)cc1
? | CCOC(=O)c1c(NC(=O)COC(=O)CNC(=O)c2ccco2)sc(C(C)=O)c1C
-15% | CN1C(=O)CC(N2CCN(c3ccccn3)CC2)C1=O (configuration not stated)
? | COc1ccc(/C=C/C(=O)NC(=S)Nc2ccc(S(=O)(=O)Nc3nccnc3OC)cc2)cc1
-19% | Cc1cc(Nc2ccc(C(=O)O)cc2)n2nc(C)nc2n1
? | CC1CCC2C(C1)c1sc(=O)[nH]c1SC2(C)C (configuration not stated)
? | N#Cc1c(NC(=O)c2ccccc2Cl)n(Cc2ccccc2)c2nc3ccccc3nc12
-5% | CCCn1c(SCC(=O)Nc2cccc(C(=O)OC)c2)nnc1-c1cccnc1
-15% | O=C(Cc1ccc(-n2cccc2)cc1)N1CCN(c2ccccc2F)CC1
? | CCOC(=O)c1c(-c2cccs2)csc1NC(=O)COC(=O)c1c(C)noc1C
-8% | CC(C)[C@@H](CC(=O)N[C@@H]1CCNC[C@H]1C(=O)N[C@H](CC(=O)N[C@@H](CCC(=O)O)CC(=O)O)Cc1ccccc1)NC(=O)C[C@H](CO)NC(=O)[C@@H]1CNCC[C@H]1N
-5% | CCCCC1(CC)C(=O)NC(=O)NC1=Nc1ccc(OC)cc1 (configuration not stated)
-12% | CSc1nnc(C)c(/C=C/Nc2ccc(Cl)cc2)n1
1% | COc1ccc(C(CC(=O)O)NC(=O)COc2ccccc2)cc1OC (configuration not stated)
-3% | COc1ccc(-n2c(=O)cc(N3CCCCCC3)[nH]c2=O)cc1
-3% | O=C(Nc1cc(F)cc(F)c1)c1sc(Cl)nc1-c1ccccc1
-11% | COc1ccc(OCCCC(=O)Nc2ccc(N3CCCCC3)cc2)cc1

An excerpt from above in order of formula weight, lowest first:
HPGD block | Compound
-15% | CN1C(=O)CC(N2CCN(c3ccccn3)CC2)C1=O (configuration not stated)
-19% | Cc1cc(Nc2ccc(C(=O)O)cc2)n2nc(C)nc2n1
1% | COc1ccc(C(CC(=O)O)NC(=O)COc2ccccc2)cc1OC (configuration not stated)
-5% | CCCn1c(SCC(=O)Nc2cccc(C(=O)OC)c2)nnc1-c1cccnc1

The list continues:
HPGD block | Compound
? | O=C(N/N=C/c1cn(-c2ccccc2)nc1-c1ccc(F)cc1)c1ccc(Br)o1
-7% | CC12CCCC(O)(C1)C1CC(C)(C)C1CC2 (configuration not stated)
-9% | COc1cc(Cl)c(S(=O)(=O)N2CC(C)OC(C)C2)cc1Cl (configuration not stated)
-5% | COCC(C)n1c(SCC(=O)NNC(=O)c2ccc(F)cc2)nc2ccccc2c1=O (configuration not stated)
-14% | CCOC(=O)C1CCCN(C(=O)c2cc(Nc3ccc(OC)cc3)nc3ccccc23)C1 (configuration not stated)
-4% | Cc1cc(C)c(C(=O)/C=C/C=C/c2ccccc2)c(=O)[nH]1
-16% | O=[N+]([O-])c1ccc2c(c1)C(N1CCOCC1)/C(=C/COc1ccc(Cl)cc1Cl)O2 (configuration not stated)
-3% | O=C(CCc1ccccc1)Nc1ccc(N2CCCCC2)cc1
-11% | CS(=O)(=O)N1CCC(C(=O)N2CCC(Cc3ccccc3)CC2)CC1
-24% | Cc1cc(C)cc(-n2nnc(C(=O)NCc3ccco3)c2N)c1
1% | O=S(=O)(Nc1cccnc1)c1cc(Cl)ccc1Cl
-16% | CCOC(=O)c1sc(=S)n(C)c1N
-9% | COc1ccc(/C=N/n2c(SC)nnc(C(C)(C)C)c2=O)c(OC)c1
-22% | CCCNC(=O)NC(=O)COc1ccc2oc3ccccc3c2c1
-4% | COc1ccccc1N1CCN(Cc2nc(N)nc(Nc3ccc(C)cc3)n2)CC1
25µM* | COc1ccc(C(=O)O)cc1Nc1cc(C)nc2ncnn12
-1% | O=S(=O)(Nc1nc2ccccc2nc1NCc1ccco1)c1ccc(Cl)cc1
-2% | CCOC(=O)N1CCC2(O)CCCCC2C1c1ccc(F)cc1 (configuration not stated)
-9% | Cc1cc(N2CCN(c3cccc(C(F)(F)F)c3)CC2)n2nc(C)nc2n1
-9% | Cc1ccc(NC(=O)C(OC(=O)c2ccc(O)cc2)c2ccccc2)cc1Cl (configuration not stated)
? | CNc1nnc(-c2cc3ccccc3oc2=O)s1
-24% | COc1ccc(-c2nnc(CSc3nc4ccccc4c(=O)n3CC(C)C)o2)cc1OC
1% | O=C(O)CN1C(=O)SC(Nc2ccccc2)C1=O (configuration not stated)
-12% | O=C1CC(c2ccccc2)CC(O)=C1C=NCCN1CCOCC1 (configuration not stated)
-3% | CC(C)c1ccccc1NC(=O)c1cnccn1
-8% | Cc1ccc2cccc(NC(=O)C(F)(F)F)c2n1
-18% | COCCOC(=O)c1c(C)nc(SCC(=O)Nc2ccc(OC)cc2)c(C#N)c1-c1ccco1
? | COC(=O)c1cc(-c2ccc3ccccc3c2)[nH]c(=O)c1C#N
-14% | CN(C)c1nc(N)nc(CSc2ccccn2)n1
-1% | CC1CC(C)CN(CCOc2cccc(Cl)c2Cl)C1 (configuration not stated)
-9% | CC1(C)SC2C(NC(=O)C(NC(=O)N3CCNC3=O)c3ccccc3)C(=O)N2C1C(=O)O (configuration not stated)
-1% | Cc1ccc(S(=O)(=O)NCC(c2ccccc2)N2CCN(CCC#N)CC2)cc1 (configuration not stated)
-26% | CCCn1c(-c2ccc(F)cc2)nc2c(NCCCN3CCCCC3C)nc(C)nc21 (configuration not stated)
-4% | CCOC(=O)N1CCN(C(=O)CS(=O)Cc2nc(-c3cccc(C)c3)oc2C)CC1 (configuration not stated)
-12% | O=C(CSc1nnc(-c2c[nH]c3ccccc23)n1CC1CCCO1)Nc1ccc2c(c1)OCCO2 (configuration not stated)
2% | COc1cccc(CNCCOCCO)c1OC
-4% | Cc1ccc(NC(=O)Cn2cnc3c(oc4nc5c(cc43)COC(C)(C)C5)c2=O)cc1
-10% | O=c1[nH]c2ccccc2n1CCCOc1ccccc1
-10% | Cc1cccc(C(=O)Oc2ccccc2/C=N/Nc2ccc([N+](=O)[O-])cc2)c1
-1% | Cc1ccc(NC(=O)N2CCC(=O)N2)cc1
4% | Brc1ccc(C2=NC(Cc3ccccc3)CO2)cc1 (configuration not stated)
? | CN1CCN(c2ncc3nc(-c4cccs4)c(=O)n(C[C@H]4CCCO4)c3n2)CC1
-25% | O=C(CSc1nc(-c2ccccc2)cs1)Nc1cccc([N+](=O)[O-])c1
? | CCn1c(=N)c(C(=O)NCc2cccnc2)cc2c(=O)n3cccc(C)c3nc21
-4% | CCOC(=O)C(NCc1ccco1)(NC(=O)c1ccc(OC)cc1)C(F)(F)F (configuration not stated)
-20% | O=C(CSc1nnc(CCCN2C(=O)c3cccc4cccc(c34)C2=O)n1-c1ccccc1)NCCCO
-10% | Cn1c(Cc2ccccc2)nnc1SCCC(=O)Nc1ccccc1
-8% | CN(CCc1ccccn1)c1ccc2c(c1)C(=O)c1ccccc1-2
-13% | c1ccc(-n2c(-c3ccncc3)nnc2N2CCOCC2)cc1
-16% | O=C(COc1ccccc1F)c1ccc(O)cc1O

Records above that bear a hit mark in HPGD block.
HPGD block | Compound
4.5µM* | CC1CCCN(C(=O)CCc2ccccc2)C1 (configuration not stated)
10µM* | COc1cc(C2CC(=O)N3CN(Cc4ccccc4)CSC3=C2C#N)ccc1OCc1ccccc1 (configuration not stated)
25µM* | COc1ccc(C(=O)O)cc1Nc1cc(C)nc2ncnn12

Ordered by the number under HPGD block (lowest first): some entries from above.
HPGD block | Compound
4.5µM* | CC1CCCN(C(=O)CCc2ccccc2)C1 (configuration not stated)
10µM* | COc1cc(C2CC(=O)N3CN(Cc4ccccc4)CSC3=C2C#N)ccc1OCc1ccccc1 (configuration not stated)
25µM* | COc1ccc(C(=O)O)cc1Nc1cc(C)nc2ncnn12

Carrying on.
HPGD block | Compound
1% | CC(NC(=O)CSc1nc(=O)cc(N)n1CCc1ccccc1)c1ccccc1 (configuration not stated)
-11% | Cc1c(C)n(CCC#N)c2ccccc12
-5% | O=C(CCN1CCN(c2ccc(F)cc2)CC1)Nc1ccccc1F
-6% | CCOC(=O)c1nn(-c2ccc(F)cc2)c(C)c1C(C)=O
? | CC[N+](CC)(CC)CCOc1ccc(/C=C\c2ccccc2)cc1
-7% | O=C(/C=C/c1ccccc1)c1ccc(O[C@H]2OC(CO)C(O)C(O)C2O)cc1O (some centres not stated)
-20% | Cc1ccc(-c2nc(SCC(=O)N(C)C3CCS(=O)(=O)C3)[nH]c2-c2ccc(C)cc2)cc1 (configuration not stated)
-19% | O=C1CC(N2CCN(c3ccc(F)cc3)CC2)C(=O)N1Cc1ccc(N2CCCC2=O)cc1 (configuration not stated)
-29% | Nc1c(C(=O)OCC2CCCO2)c2nc3ccccc3nc2n1-c1ccc2c(c1)OCCO2 (configuration not stated)
-10% | COC(=O)[C@H]1CCCN1C(=O)Nc1cccc(Oc2c(F)c(F)c(F)c(F)c2F)c1
-8% | Cc1nc2c3ccccc3nc(SCC(=O)c3ccc(Cl)cc3)n2n1
-1% | O=C(O)/C=C\C(=O)NC1CCCCC1
-14% | CCC(=O)c1ccc(OCC(O)Cn2c(C)nc3ccccc32)cc1 (configuration not stated)
-11% | COc1ccc(C2CC(=O)n3nc(C45CC6CC(CC(C6)C4)C5)nc3S2)cc1OC (configuration not stated)
-1% | O=C(Nc1cccc2ccccc12)c1ccc(Cn2cc(Cl)cn2)cc1
-11% | Cc1ccc(S(=O)(=O)N2CCCC(C(=O)NCCc3ccc4c(c3)OCO4)C2)cc1 (configuration not stated)
? | Cc1ccccc1Oc1ncnc2oc(-c3ccccc3)cc12
0% | O=P(Cc1nnco1)(c1ccccc1)c1ccccc1
? | CCOCCCNC(=O)c1c(C)c(C(=O)OCC)n(C)c1C
-8% | C=CCOC(=O)N[C@H](/C(C(=O)OC)=C(\C)NCc1ccccc1)c1ccc2c(c1)OCO2

Compound activity deposited in PubChem by National Center for Advancing Translational Sciences (NCATS).

An excerpt. The share of hits here may be higher or lower than overall.
